T cruzi inh – T. cruzi replication inhibition; T. cruzi beta-gal in NIH3T3, luminescence, 90 h; inhibition, % (test concentration not listed); actives 1.4% (n = 300,000);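 active = mean inhibition across valid replicates above about 55%, limit read from the data; inconclusive = mean below that limit but half or more replicates reach it; inactive = mean below it, under half of replicates reach it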;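 also: signal also drops with host cell toxicity which is not excluded here; 0% = plate median of DMSO wells and 100% = zero luminescence signal; higher percent means less beta-gal luminescence so fewer parasites; stock transfer was 50 nL into about 50 µL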
A1 inh – inhibitors of the anti-apoptotic protein A1, read as caspase activation; MEF A1-2A-BIM cells, Caspase-Glo 3/7 luminescence, 3 h; percent of clofoctol response, vehicle zero; caspase activation, % (concentration not given with the values); actives 0.066% (n = 330,000);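 active = over half of replicate activation scores above 10%, or exactly half above 10 with the replicate mean above 10; inconclusive = replicate mean below 10 yet half the replicates above 10; inactive = over half of replicates below 10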;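 also: wells of about 30 µL received 50 nL stock; many hits fall short of the cut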
B2AR ag – human beta-2 adrenergic receptor agonism by FAP; AID 504454; Am2.2-beta2AR cells, FAP receptor internalization, flow cytometry; reference of the scale not given here; P07550; response, % (no concentration beside the values); actives 0.43% (n = 340,000);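 active = response above a set limit, near 3 SD of response in nonfluorescent compounds, cut at about 42% in these data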;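 also: stock transfer was 100 nL into about 11 µL; a reference agonist was the positive control; negative values mostly stem from fluorescent compounds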
RanGTP-Imp inh – disruptors of Ran-importin-beta complex formation – biochemical, FRET, CFP-Ran, YFP-importin-beta, homogeneous, primary screen; cell-free CFP-Ran/YFP-importin-beta FRET ratio; inhibition, % (test concentration not listed); actives 1.1% (n = 300,000);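 active = most replicates above 15%; inconclusive = exactly half above 15%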;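 also: 0% = DMSO wells and 100% = Ran loaded with GDP instead of GTP; wells of about 40 µL received 100 nL stock; the first replicate is given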
Calb FLC – affects C. albicans growth with fluconazole. growth inhibition, % (test concentration not listed). C. albicans CaCi-2 (fluconazole-resistant clinical isolate) + fluconazole, Alamar Blue growth, 48 h. actives 0.57% (n = 300,000);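 active = most replicates above 75%; inconclusive = exactly half above 75%; inactive = most below 75%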;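 also: all wells also contain fluconazole at 8 µg/ml as a sub-toxic cotreatment; 0% = median of DMSO wells and 100% = median of geldanamycin control wells; wells of about 8 µL received 7.5 nL stock; the first replicate is given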
UCH37 inh – human UCH37 deubiquitinating enzyme inhibition | Q9Y5K5 | purified proteasome/UCH37, Ub-AMC cleavage fluorescence | inhibition, % (test concentration not listed) | actives 0.33% (n = 330,000) | AID 588478;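 active = mean of two replicates above 20%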;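 also: 0% = compound-free wells with enzyme and 100% = wells lacking proteasome; stock transfer was 100 nL into about 20 µL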
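Test system – human UCH37 enzyme supplied as purified proteasome complex · Incubation – 30 min preincubation with enzyme, 25 min cleavage at room temperature · Detection – AMC fluorescence from Ub-AMC cleavage, excitation 355 nm, emission 460 nm · Benchmarks – no-proteasome wells (full inhibition) and compound-free wells (no inhibition)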
LANA-H2A inh – blocks KSHV LANA binding to histone H2A/H2B; actives 0.6% (n = 320,000); cell-free LANA-H2A/H2B peptide, fluorescence polarization; AID 2629; inhibition, % (concentration not given with the values); in the data active = inhibition mostly above about 10%, no sharp cut-off; inactive = mostly below about 6.7%;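 also: stock transfer was 7.5 nL into about 10 µL; 0% = median of vehicle wells and 100% = median of positive control wells; one replicate is shown; the record names a cut of 25% in any replicate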
Target sequence (Q9QR71 whole entry, looked up): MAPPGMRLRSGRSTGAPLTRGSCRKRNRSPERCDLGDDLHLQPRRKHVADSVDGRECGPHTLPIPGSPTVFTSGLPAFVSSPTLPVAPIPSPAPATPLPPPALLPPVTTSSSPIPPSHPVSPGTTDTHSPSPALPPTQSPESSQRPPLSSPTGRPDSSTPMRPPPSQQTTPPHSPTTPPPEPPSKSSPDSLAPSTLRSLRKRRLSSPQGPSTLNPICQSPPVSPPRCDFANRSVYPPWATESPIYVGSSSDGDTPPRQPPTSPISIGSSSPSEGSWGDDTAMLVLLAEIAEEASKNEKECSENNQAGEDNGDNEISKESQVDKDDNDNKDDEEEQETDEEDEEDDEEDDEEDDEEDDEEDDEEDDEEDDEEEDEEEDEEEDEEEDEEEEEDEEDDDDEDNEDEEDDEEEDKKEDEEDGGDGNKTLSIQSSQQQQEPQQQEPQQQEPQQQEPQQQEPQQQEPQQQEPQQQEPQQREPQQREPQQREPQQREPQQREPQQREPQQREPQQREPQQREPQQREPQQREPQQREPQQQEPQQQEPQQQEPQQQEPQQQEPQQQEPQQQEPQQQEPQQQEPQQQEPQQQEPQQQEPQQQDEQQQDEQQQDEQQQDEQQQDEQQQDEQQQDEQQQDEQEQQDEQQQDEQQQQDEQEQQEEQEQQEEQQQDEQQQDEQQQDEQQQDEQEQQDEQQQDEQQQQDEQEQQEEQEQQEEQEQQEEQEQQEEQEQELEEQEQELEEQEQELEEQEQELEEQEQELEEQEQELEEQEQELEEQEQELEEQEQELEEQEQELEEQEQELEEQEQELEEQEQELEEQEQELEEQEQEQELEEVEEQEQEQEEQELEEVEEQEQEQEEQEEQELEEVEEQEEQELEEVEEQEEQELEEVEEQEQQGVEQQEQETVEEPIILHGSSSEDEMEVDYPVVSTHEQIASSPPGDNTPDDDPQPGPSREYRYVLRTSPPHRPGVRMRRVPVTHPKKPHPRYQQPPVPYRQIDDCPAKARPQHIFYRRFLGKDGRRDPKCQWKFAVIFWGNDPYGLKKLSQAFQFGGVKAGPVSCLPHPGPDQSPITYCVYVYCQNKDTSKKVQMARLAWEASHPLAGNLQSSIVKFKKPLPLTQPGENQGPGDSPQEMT
Beta apoptosis – blocks beta cell apoptosis; protection from apoptosis, % (concentration not given with the values); actives 0.8% (n = 300,000); INS-1E cytokine-induced death, ATP luminescence, 48 h; percent of positive-control rescue, neutral wells zero; AID 435005;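 active = all replicates at 75% or more, or half of them and the mean; inconclusive = half reach 75% but not the mean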;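 also: 0% = cytokine-treated negative control wells and 100% = positive control rescue; higher means more ATP so stronger rescue from cytokine killing; wells of about 40 µL received 100 nL stock; the first replicate is given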
Starred values were filed as active, the others as inactive; u = inconclusive; x = no result given. Outcome played no part in choosing rows, and some 4.3% of all compounds hit somewhere here.

SMILES | T cruzi inh | A1 inh | B2AR ag | RanGTP-Imp inh | Calb FLC | UCH37 inh | LANA-H2A inh | Beta apoptosis
Cc1ccc(NC(=O)c2cccc(C(=O)OC(C)C)n2)c(Br)c1 | 7 | -0.7 | -2 | 0.4 | 55 | 4.2 | -1.3 | -21
CCOC(=O)CSc1nnc(-c2cccnc2)o1 | -3 | -0.1 | 1 | 2.3 | -2 | 1.8 | 6.0 | -2
CC(OC(=O)CCC(=O)N1CCN(S(=O)(=O)c2ccc3ccccc3c2)CC1)C(=O)NC(N)=O (stereo unspecified) | -5 | -0.1 | -3 | 2.2 | -9 | 1.5 | 4.1 | -7
COCCN(C(=O)CNC(=O)c1ccco1)C(C(=O)NC1CCCCC1)c1cccs1 (stereo unspecified) | -1 | 0.0 | -15 | 3.9 | -67 | 1.3 | -1.4 | -2
CN(Cc1nc(-c2cnccn2)no1)CC1(c2ccccc2)CC1(C)C (stereo unspecified) | 0 | 1.1 | 4 | u | -2 | 2.2 | 3.0 | -3
CCN1CCN(CCC(=O)Nc2cc(C)ccc2C)CC1 | -12 | -0.1 | -2 | 1.7 | 2 | -0.2 | -0.9 | -2
CCCCc1nc2n[nH]c(N)c2c2c1CCCC2 | -4 | -0.7 | -1 | 2.0 | 7 | -0.9 | 1.1 | 3
COc1ccccc1C(=O)NCC(=O)OCC(=O)Nc1cccc(S(=O)(=O)N(C)C)c1 | -10 | 1.1 | 9 | -0.7 | -6 | 0.8 | 1.8 | -11
COc1ccc(O)c(-c2cc(-c3ccccc3Cl)[nH]n2)c1 | -8 | -3.6 | -6 | 0.4 | -3 | -0.8 | 2.8 | x
COc1cc(-c2nnc(COc3ccc(Cl)cc3C)o2)cc(OC)c1OC | 16 | 0.8 | 9 | -0.2 | -3 | 4.4 | -4.0 | 9
CCOC(=O)c1cccc(NC(=O)c2cccs2)c1 | -5 | -1.0 | -3 | -2.5 | -7 | -1.2 | -2.2 | 2
Cc1cc(C)cc(NS(=O)(=O)c2ccc3oc(=O)ccc3c2)c1 | 14 | 0.0 | -17 | 2.2 | 29 | 2.1 | -7.2 | -4
CCN(CC)C(=O)CC1(c2ccccc2OC)CCOC(C(C)C)C1 (stereo unspecified) | -2 | 0.6 | -3 | 0.9 | 2 | 4.1 | -0.1 | 1
NS(=O)(=O)c1ccc(CNC(=O)c2cc(-c3ccccc3)nc3ccccc23)cc1 | -12 | 0.5 | -4 | -6.9 | -2 | -1.5 | 3.5 | -3
COc1ccc(NC(=O)CSc2nc3scc(C)c3c(=O)[nH]2)cc1 | 0 | 0.6 | 4 | 3.0 | 1 | -0.5 | 1.1 | 8
COc1ccc(NC(=O)C(NC(=O)c2ccc(=O)[nH]c2)c2ccc(OC)cc2)cc1 (stereo unspecified) | -2 | 0.2 | -3 | -4.5 | 4 | 3.3 | -9.2 | -5
CCOc1cc(/C=C2/C(=N)N3N=C(CC)SC3=NC2=O)ccc1OC(=O)c1ccco1 | -7 | -0.1 | 24 | 9.9 | -1 | 7.1 | 2.7 | 1
COc1ccccc1N1CCN(CC(O)COCc2cccs2)CC1 (stereo unspecified) | -24 | 0.6 | -3 | -3.2 | -17 | 1.8 | 1.2 | -2
O=C(COC(=O)c1ccc2c(c1)OCCO2)Nc1cccc(S(=O)(=O)N2CCOCC2)c1 | 0 | 0.0 | 2 | u | 15 | -1.2 | 2.9 | 1
Cc1sc(=NC(=O)c2ccco2)n(C)c1-c1ccccc1 | 13 | -1.2 | -5 | u | 39 | -9.1 | 0.2 | -4
Cc1onc(-c2ccccc2Cl)c1C(=O)OCC(=O)Nc1ccc2c(c1)OCO2 | -9 | 0.7 | 16 | 4.0 | -5 | 2.4 | 3.3 | -3
CCOC(=O)C1CCc2nc3ccccc3c(=O)n21 (stereo unspecified) | -3 | -0.2 | 2 | u | -1 | -0.9 | -5.0 | 6
COc1ccc(CN2C(=O)N(c3ccccc3)C(=O)C2CC(=O)Nc2ccccc2)cc1OC (stereo unspecified) | 6 | -0.7 | -1 | 5.8 | -3 | 2.0 | 2.5 | 1
COc1cccc(Sc2nc(-c3ccccc3)ncc2S(C)(=O)=O)c1 | -3 | -0.7 | 0 | -0.3 | 10 | 2.5 | -2.6 | x
COC(=O)c1nnn(Cc2ccccc2)c1N | -4 | 1.0 | 0 | 1.6 | -24 | 1.3 | -0.3 | -9
COc1ccc(CCNC(=O)CSc2nc(-c3ccco3)cc(C(F)(F)F)n2)cc1 | -25 | 1.1 | -9 | 5.5 | -12 | 1.0 | -1.6 | -9
OCCNc1nc(Nc2ccccc2Cl)nc(N2CCCC2)n1 | 6 | 2.0 | -2 | -1.4 | 7 | 3.3 | -0.8 | 4
Cc1ccc(-c2nn3c(C)nnc3s2)cc1NC(=O)c1ccc(OC(C)C)cc1 | 3 | 0.0 | 7 | u | -13 | -2.1 | 1.3 | 6
CCCCN(NC(C)=O)c1nc(Cl)nc(NC(C)C)n1 | 1 | 0.6 | 8 | 2.6 | 5 | 0.5 | 2.4 | 3
O=C(CN(c1ccccc1)S(=O)(=O)c1ccccc1)Nc1ccc(F)cc1 | -7 | 0.0 | -1 | 1.4 | 2 | 4.1 | 5.2 | 0
O=S(=O)(Nc1ncccn1)c1ccc(NC(=S)NCc2cccnc2)cc1 | -18 | 0.8 | 4 | 0.3 | 16 | 3.8 | -2.5 | -7
COc1ccc2oc3ccccc3c(=O)c2c1 | -6 | -8.7 | -2 | -0.6 | -10 | -161 | -3.0 | 2
Cc1ccc(S(=O)(=O)/C(C#N)=C/c2c(N3CC(C)OC(C)C3)nc3ccccn3c2=O)cc1 (stereo unspecified) | -5 | 0.0 | -5 | 2.3 | 10 | 1.3 | -3.5 | 6
COc1ccc(-c2cc3cc(F)ccc3cn2)cc1 | x | -5.2 | -3 | x | x | -3.0 | 1.5 | -3
CCC(=O)OCC(=O)Nc1cc(C)c(C)cc1[N+](=O)[O-] | -39 | 0.7 | 3 | 3.6 | -16 | 0.5 | -6.6 | 1
CC(C)CC(Nc1ncnc2scc(-c3ccccc3)c12)C(=O)O (stereo unspecified) | -5 | -0.3 | 6 | 2.6 | 32 | 4.5 | -7.2 | -2
Cc1ccc(-c2nnn(CC(=O)N(c3cnc4ccccc4c3)C(C(=O)NC3CCCC3)c3ccncc3)n2)o1 (stereo unspecified) | -26 | -0.6 | 6 | 1.7 | -13 | 2.5 | -2.6 | x
Cc1ccc(S(=O)(=O)N=S(CCO)CCO)cc1 | -10 | -0.4 | 7 | 1.5 | -10 | 1.9 | 6.7 | -6
Cc1cc(NC(=O)c2cccc(COc3ccc(Br)cc3)c2)no1 | 2 | -0.6 | 5 | 0.5 | 8 | 5.4 | -5.4 | x
Cc1cccc(Nc2nc(N)c([N+](=O)[O-])c(N3CCCC(C)C3)n2)c1 (stereo unspecified) | 2 | 3.0 | -3 | -1.9 | -2 | 7.3 | 0.4 | 5

Of the compounds above, 2 have bromine:
SMILES | T cruzi inh | A1 inh | B2AR ag | RanGTP-Imp inh | Calb FLC | UCH37 inh | LANA-H2A inh | Beta apoptosis
Cc1ccc(NC(=O)c2cccc(C(=O)OC(C)C)n2)c(Br)c1 | 7 | -0.7 | -2 | 0.4 | 55 | 4.2 | -1.3 | -21
Cc1cc(NC(=O)c2cccc(COc3ccc(Br)cc3)c2)no1 | 2 | -0.6 | 5 | 0.5 | 8 | 5.4 | -5.4 | x

Further structures.
SMILES | T cruzi inh | A1 inh | B2AR ag | RanGTP-Imp inh | Calb FLC | UCH37 inh | LANA-H2A inh | Beta apoptosis
Cc1nc(Nc2ccc(S(=O)(=O)N3CCCC3)cc2)c2nnn(Cc3ccccc3)c2n1 | 6 | -0.2 | 4 | 5.6 | -3 | -16 | 2.7 | 10
COc1ccc(CCN2CC(C(=O)NCc3ccco3)CC2=O)cc1OC (stereo unspecified) | -6 | 0.6 | 9 | -1.6 | 7 | 1.8 | -0.6 | 2
O=C1NC2(CCCC2)Oc2ccccc21 | -22 | 0.5 | -2 | -1.1 | -4 | -0.4 | -0.9 | -2
O=C(CN1C(=O)CC(c2ccccc2)Sc2ccccc21)NCC1CCCO1 (stereo unspecified) | -6 | 1.2 | -1 | 1.2 | 7 | 1.2 | 1.0 | -1
CC(=O)c1cccc(CN2CCC(C(=O)Nc3cccc(-c4ccn[nH]4)c3)CC2)c1 | 19 | -0.1 | 14 | 2.6 | 1 | 3.8 | -3.5 | 2
CCCCCCCN1C(Nc2ccccc2)=NC[C@@H]1CC(C)C | 33 | 0.1 | 15 | 0.6 | -37 | x | 7.9 | 30
O=C(c1cccnc1)C1CCCN(Cc2nc(Cc3ccccc3)no2)C1 (stereo unspecified) | 1 | -0.4 | -1 | -1.8 | 25 | 2.7 | 0.3 | -9
N#CCCn1cc(/C=N/O)c(-c2ccccc2)n1 | x | 1.4 | 1 | x | x | x | 0.2 | -7
CCN1CCN(CC(O)COCCOc2ccc(Br)cc2)CC1 (stereo unspecified) | 21 | 0.8 | 5 | -1.0 | -1 | 2.4 | -4.1 | -5
COc1ccc(NC(=O)COc2ccccc2Cc2ccccc2)cc1S(N)(=O)=O | 0 | 0.7 | -4 | u | -11 | 5.5 | -0.9 | 6
CCCCN(C(=O)Nc1ccc(OCC)cc1)C1CCN(C(C)=O)CC1 | -11 | 1.5 | -3 | 3.7 | 9 | 3.6 | -0.6 | 0
Cn1cnnc1SCC(=O)Nc1ccc2nc(SCc3ccccc3)sc2c1 | 21 | -0.6 | 5 | 5.3 | -4 | 0.7 | x | 2
O=[N+]([O-])c1cc2c(cc1/C=N/n1c(-c3ccccn3)n[nH]c1=S)OCO2 | -11 | -0.9 | -6 | 3.4 | 10 | x | -7.4 | 1
C/C(=N\OCC(=O)Nc1ccccc1C(C)(C)C)c1ccc2c(c1)OCCO2 | 5 | 0.4 | 4 | 0.9 | -6 | x | 2.6 | -7
C[C@H](CO)N1C[C@H](C)[C@@H](CN(C)C(=O)Nc2ccc3c(c2)OCO3)Oc2c(NC(=O)Nc3ccccc3)cccc2C1=O | x | 0.9 | 8 | x | x | 12 | 3.5 | 0
Cn1c(=O)c2ncn(CC(=O)Nc3ccc(N4CCOCC4)cc3)c2n(C)c1=O | -7 | 0.1 | -2 | -0.7 | 7 | 2.1 | -1.2 | -1
Cc1cc(C(C)(C)C)ccc1OCCCCN1CCCC1 | 46 | -0.1 | 3 | 2.2 | 0 | 3.1 | 3.8 | 21
Cc1cccn2c(=O)c3cc(C(=O)N4COCC4(C)C)n(Cc4ccccc4)c3nc12 | 20 | -0.3 | -4 | -1.5 | 7 | -247 | 0.1 | -3
CC1(C)Cc2nc3oc4c(NCCCN5CCOCC5)ncnc4c3cc2CO1 | 8 | 0.2 | 2 | 1.6 | -1 | -49 | -4.7 | 0
CC(C)n1c(CN2CCN(C)CC2)nc2c1c(=O)n(C)c(=O)n2C | -15 | 0.5 | -1 | 1.1 | 3 | 2.8 | 0.1 | 3
COc1ccc(C(=O)Nc2nc(CC(=O)NCc3ccc(F)cc3)cs2)cc1 | -12 | -1.0 | 2 | 1.0 | 1 | -7.7 | -1.1 | x

From PubChem
